HCMV NEC inh – inhibitors of HCMV UL50-UL53 interaction, biochemical, HTRF. hit rate 0.15% among 190,000. inhibition, % (test concentration not listed). normalized percent inhibition. AID 1918969, 2023;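 active = both replicates at 50% or more, plus weaker picks with an unusually low signal ratio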;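 also: stock transfer was 100 nL into about 20 µL; 0% = negative control wells and 100% = wells with untagged competitor protein; inactives centre near -12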
* hit, by the source's call; & = joins results of further samples. The list is partial. The share of hits here may be higher or lower than overall.

| SMILES | HCMV NEC inh |
| --- | --- |
| CC(C)Cn1c2ccccc2c2nc3ccccc3nc21 | 8 |
| Cc1nc(C(F)(F)F)nc(Sc2n[nH]c(-c3cccs3)n2)c1C | 16 |
| Cc1sc2nc[nH]c(=O)c2c1-c1ccc(F)cc1 | -8 |
| CCCCC/C=C\C\C=C/C=C/C=C/[C@@H](SCC(NC(C)=O)C(=O)O)[C@@H](O)CCCC(=O)O (some centres undefined) | -6 |
| c1cn(-c2ccc(-c3csnn3)cc2)cn1 | -1 |
| COc1cccc(Cn2c(=O)c3ccccc3n3nc(C)cc23)c1 | 2 |
| O=C(COc1ccccc1)Nc1nnc(SCc2cccc(F)c2)s1 | -16 |
| Cc1ccc(N(C(=O)c2ccncc2)C2C=CS(=O)(=O)C2)cc1 (centres undefined) | -5 |
| CC(C)c1onc(-c2c(Cl)cccc2Cl)c1COc1ccc(C=Cc2cccc(C(=O)O)c2)c(Cl)c1 | -88 |
| CC1CCCCN1S(=O)(=O)c1cc(Cl)ccc1Cl (centres undefined) | -11 |
| CC(NC(=O)c1ccco1)C(c1cccs1)N1CCOCC1 (centres undefined) | -14 |
| Cc1ccc(N2CS(=O)/C(=C/Nc3ccc(Cl)cc3)C2=O)cc1 (centres undefined) | -8 |
| CS(=O)(=O)/N=C(\NC#N)c1ccccc1 | -4 |
| CC(C)(C)C(=O)Nc1ccccc1 | -26&-26 |
| COC(=O)c1c(NC(=O)c2ccco2)c2cc(NC3CCOCC3)cnc2n1C | -5 |
| CCCc1cc(=O)oc2c(CN3CCN(C)CC3)c(O)ccc12 | -20 |
| COc1ccc([C@@H]2CC(=O)c3c(O)cc(O[C@@H]4O[C@H](CO[C@@H]5O[C@@H](C)[C@H](O)[C@@H](O)[C@H]5O)[C@@H](O)[C@H](O)[C@H]4O)cc3O2)cc1O | 1 |
| CCCc1nc2ccccc2n1C(=O)CCC(=O)O | -12 |
| O=C(O)c1ccc(-c2ccccc2OC(F)(F)F)o1 | -28 |
| CCNC(=O)Oc1cccnc1I | -16 |
| CC(=O)Nc1ccc(N/C=C(/C#N)c2nc(-c3ccc(Cl)cc3)cs2)cc1 | 5 |
| CCc1cc2c(=O)c(-c3ccc4c(c3)OCO4)coc2cc1O | -18 |
| COc1ccc(C(=O)N2CCN(c3ccc(Cl)c(Cl)c3)CC2)cc1OC | 1 |
| O=C1NC(=NCc2cccs2)S/C1=C\c1ccc2ncccc2c1 | -21 |
| CC1(C)S[C@@H]2C(NC(=O)C(N)c3ccc(O)cc3)C(=O)N2C1C(=O)O (some centres undefined) | 13 |
| CCc1nnc(NC(=O)COc2ccc(Cl)cc2)s1 | -28 |
| CCOC(=O)c1sc(NC(=O)c2ccccc2OC)nc1-c1ccccc1 | -14 |
| CCCCC[C@H](O)/C=C/[C@H]1CCC(=O)[C@@H]1C/C=C\CCCC(=O)O | -20&-20 |
| CCOC(=O)N1CCN(CC(O)COc2ccc(C3CCCCC3)cc2)CC1 (centres undefined) | 6 |
| Cn1ccnc1C(O)c1ccccc1 (centres undefined) | -5 |
| CC(C)Oc1cccc(NC(=O)Cc2ncc(C(F)(F)F)cc2Cl)c1 | 1 |
| Cc1ccc(C(=O)Nc2nnc(SCC(=O)N3CCCCC3)s2)cc1 | -22 |
| Cc1nc2c(C#N)c(-c3ccc(Cl)cc3)ccn2n1 | -30 |
| C[C@@]1(c2cc(-c3cncnc3)c(F)cc2F)CCSC(N)=N1 | -8 |
| CCSc1nnc(NC(=O)c2c(-c3ccccc3Cl)noc2C)s1 | -8 |
| CCOC(=O)C1=C(CC)NC2=C(C(=O)CC(C)(C)C2)C1c1cc(OC)ccc1OC (centres undefined) | -12 |
| CCCCC[C@H](O)/C=C/[C@@H]1[C@H]2C/C(=C\CCCC(=O)O)C[C@H]2C[C@H]1O | -19&-19 |
| Cc1cc(Nc2ncnc3ccc(-c4ccc(CNCCS(C)(=O)=O)o4)cc23)ccc1Oc1ccn2ncnc2c1 | -76 |
| CNS(=O)(=O)c1cc(NCc2cnc(C)[nH]2)cc(C(=O)Nc2ccc3c(c2)CCC3)c1 | -8 |
| COc1cccc(OC)c1C(=O)Nc1nnc(SC)s1 | -13 |
| CCc1ccccc1-c1cc(C)nc(N)n1 | 44&44 |
| Cc1ccc(S(=O)(=O)c2nc(Nc3nccs3)sc2Cl)cc1 | -7 |
| Oc1oc(C=Nc2cccc(C(F)(F)F)c2)c2ccccc12 | -4 |
| CCc1cc(-c2ccccc2)nc2ccccc12 | -8 |
| CN(CCOC(=O)Nc1cccc(Cl)c1)c1ccc(C#N)cn1 | 0 |
| COc1ccc(NC(=O)c2oc(=O)c3ccccc3c2-c2ccccc2)cc1 | -4 |
| COc1c(S(=O)(=O)n2cnc3ccccc32)ccc(Cl)c1Cl | 1&-7 |
| Cc1ccc(NC(=O)c2cc(S(=O)(=O)N3CCCCC3)ccc2F)cc1 | 0 |
| CCCCC(=O)NCc1ccc2c(c1)cc(C)n2C | -4 |
| O=C(O)CCC/C=C\C[C@@H]1[C@@H](/C=C/[C@@H](O)COc2cccc(C(F)(F)F)c2)[C@H](O)C[C@@H]1O | -22&-22&-8 |
| Nc1cccc(-c2cc3c(Oc4cccc(O)c4)ncnc3[nH]2)c1 | -27&-30 |
| O=C(CCn1c(=O)sc2ccccc21)Nc1ccon1 | -8 |
| O=S1(=O)C=CC(Nc2ccccc2)C1 (centres undefined) | 9 |
| CCC(=O)Nc1ccc(-c2cn3cccc(C)c3n2)cc1 | -2 |
| CCn1cc(CN2CCN3C(=O)[C@@H]4C[C@@H](O)CN4C(=O)[C@H]3C2)c(C)n1 | -9 |
| Cc1ccc(S(=O)(=O)NCC(=O)N2CCCCC2)cc1 | -10 |
| O=C(O)CNC(=O)CC12CC3CC(CC(C3)C1)C2 | -6 |
| CCN(CC)S(=O)(=O)c1ccc(C(=O)Nc2sccc2C#N)cc1 | -9 |
| c1ccc(CN(CCN(Cc2ccccn2)Cc2ccccn2)Cc2ccccn2)nc1 | -1 |
| COc1ccc(C(=O)C(C)OC(=O)c2ccc3ccccc3n2)cc1 (centres undefined) | -1 |

New compounds follow.
| SMILES | HCMV NEC inh |
| --- | --- |
| Cc1ccc(SCc2cn3ccccc3n2)cc1 | -5 |
| CCOC(=O)c1ccc(NC(=O)c2ccc(Cl)cc2)cc1 | -5 |
| Cc1nnc(SCC(=O)Nc2nsc(-c3ccccc3)n2)s1 | 2 |
| c1ccc([B-]2(c3ccccc3)[NH2+]CCO2)cc1 | 6 |
| CC12CCC(C(=O)Nc3nccs3)(OC1=O)C2(C)C (centres undefined) | -12 |
| Cn1c(C(F)(F)F)nc2ccccc21 | 2 |
| Cc1cccc(NC(=O)c2ccc(S(=O)(=O)N(C)c3ccccc3)cc2)n1 | -19 |
| CN(C(=O)C1=COCCO1)c1ccccc1 | -1 |
| CNc1nc(-c2cccc(OC)c2)ncc1F | -24&-24 |
| CCSC1=NCCN1S(=O)(=O)c1ccc(NC(C)=O)cc1 | 6&-10 |
| O=C(CCCCCCNC(=O)c1cnc(N(c2ccccc2)c2ccccc2)nc1)NO | -5 |
| O=C(O)[C@H](O)[C@@H](O)[C@H](O[C@@H]1O[C@H](CO)[C@H](O)[C@H](O)[C@H]1O)[C@H](O)CO | -11 |
| Cc1ccccc1-c1c(C)oc2c(CN(C)C)c(O)ccc2c1=O | 5 |
| COC(=O)Nc1cn(Cc2cccnc2)c(=O)c2ccccc12 | -4 |
| CCOC(=O)C(CC)Sc1nnc(-c2c[nH]c3ccccc23)n1C (centres undefined) | 7 |
| O=C(Nc1cccc(-c2nn[nH]n2)c1)c1cccc(F)c1 | -24 |
| CCCCCCCCCCCCCCCCCCc1ccc(C(=O)/C=C/C(=O)O)cc1 | -4 |
| O=C(O)c1ccc(CSc2nc3ccccc3s2)cc1 | -10 |
| CCCCC[C@H](O)/C=C/[C@@H]1[C@H]2C/C=C\CCCC(=O)O[C@@H]1C[C@@H]2O | -2&-2 |
| CO/C(N)=N/C(=S)Nc1ccccc1 | -9 |
| O=C(CCCCc1ccccc1)C(F)(F)C(F)(F)F | -13&-13 |
| COc1cccc2sc(=NC(=O)c3cccc4ccccc34)n(C)c12 | -15 |
| CC1=C(C(=O)Nc2cc3cn[nH]c3cc2F)C(c2ccc(C(F)(F)F)cc2)CC(=O)N1 (centres undefined) | 0&-10&-4&-5&-4&-16&-16&-8 |
| CC(C)Oc1cccc(C(=O)N2CCC(n3cc(C(C)(C)O)nn3)CC2)c1 | -1 |
| CCOc1ccc2nc(NC(=O)c3ccc(C#N)cc3)sc2c1 | -24 |
| COc1cccc(C(=O)Nc2nnc(-c3ccc(Br)cc3)s2)c1 | 0 |
| CC1(C)SC2C(N=CN3CCCCCC3)C(=O)N2C1C(=O)O (centres undefined) | -86 |
| Cc1c(C(=O)NCCN(C)C)sc2nc(-c3ccc(F)cc3)cn12 | -13 |
| CC(C)(Oc1ccc(Cl)cc1)C(=O)NCCn1ccc2ccccc21 | 1 |
| CCCCC(C)(C)[C@H](O)/C=C/[C@H]1CCC(=O)[C@@H]1C/C=C\CCCC(=O)O | -25&-25 |
| CC1CCN(C(=O)CC#N)CC1N(C)c1ncnc2[nH]ccc12 (centres undefined) | 3&-14&-18&-22&-20 |
| COc1ccc(/C(O)=C2/C(=O)C(=O)N(CCCO)C2c2cccc(Br)c2)cc1F (centres undefined) | -7 |
| COC(=O)Nc1cn(Cc2ccccn2)c(=O)c2ccccc12 | 2 |
| CC(=O)NCc1nc2ccccc2n1C(C)C | -14 |
| Nc1ccc2c(c1)C/C(=C\c1ccco1)C2=O | -72 |
| COc1cccc2c1CCN(C)C2=O | -16 |
| Cc1nc2cc(CC(=O)O)ccc2o1 | -16 |
| CC(=O)Nc1ccc(-c2cn3ccsc3n2)cc1 | 0 |
| Cn1c(SCc2nc3ccccc3s2)nnc1-c1cccs1 | -4 |
| NC(=O)C1=CN(Cc2ccccc2)CCC1C(F)(F)F (centres undefined) | 14 |

Continuation:
molecule	HCMV NEC inh
CNC(=O)C(Cc1ccccc1)NC(=O)C(CC(C)C)C(CSc1cccs1)C(=O)NO (centres undefined)	-4
COc1ccccc1NC(=O)c1cc2ccccc2oc1=O	-18
O=C(CSCc1ccccc1)Nc1nnc(SCc2ccccc2)s1	-18
O=C(NCc1ccccn1)c1cc(NCC2CC2)cc(S(=O)(=O)N2CCCC2)c1	0
O=C(NC=C(Cl)Cl)c1ccccc1	-7
CCN(CC)CCOC(=O)C(c1ccccc1)C1CCCCC1 (centres undefined)	-11
CCCn1c(C(C)NC(C)=O)nc2ccccc21 (centres undefined)	-9
Cc1ccc(-c2c(C(=O)CCl)n(CCO)c3ncnc(N)c23)cc1	-12

7 entries drawn at random from the list so far, as already listed:
molecule	HCMV NEC inh
O=C(NCc1ccccn1)c1cc(NCC2CC2)cc(S(=O)(=O)N2CCCC2)c1	0
CCCn1c(C(C)NC(C)=O)nc2ccccc21 (centres undefined)	-9
O=C(CSCc1ccccc1)Nc1nnc(SCc2ccccc2)s1	-18
O=C(NC=C(Cl)Cl)c1ccccc1	-7
Cc1ccc(-c2c(C(=O)CCl)n(CCO)c3ncnc(N)c23)cc1	-12
CCN(CC)CCOC(=O)C(c1ccccc1)C1CCCCC1 (centres undefined)	-11
COc1ccccc1NC(=O)c1cc2ccccc2oc1=O	-18

Reformatted as labelled records: part of the list above.
O=C(NCc1ccccn1)c1cc(NCC2CC2)cc(S(=O)(=O)N2CCCC2)c1
  HCMV NEC inh: 0

O=C(NC=C(Cl)Cl)c1ccccc1
  HCMV NEC inh: -7

Other results.
molecule	HCMV NEC inh
CNC(C)C(=O)NC(C(=O)N1CCCC1C(=O)NC(C(=O)NCCCCCCNC(=O)C(NC(=O)C1CCCN1C(=O)C(NC(=O)C(C)NC)C1CCCCC1)C(c1ccccc1)c1ccccc1)C(c1ccccc1)c1ccccc1)C1CCCCC1 (centres undefined)	-4
C=CC(=O)Nc1cccc(Oc2nc(Nc3ccc(N4CCN(C)CC4)cc3OC)ncc2Cl)c1	49&12&13&8&9
CN(Cc1ccccc1)S(=O)(=O)c1ccc2[nH]c(=O)oc2c1	-14
Cc1ccc(C)c(NC(=O)CC(NC2CCCCC2)C(=O)O)c1 (centres undefined)	3
Cc1csc(-c2c(C(F)(F)F)oc3cc(O)c(C)cc3c2=O)n1	-17
Oc1ccc(C2COc3cc(O)ccc3C2)cc1 (centres undefined)	0&-17&-17
COCC(=O)NCCc1nc2ccccc2n1Cc1c(F)cccc1Cl	-12
Cc1ccc(/C=C2\SC(=S)N(CC(=O)N3CCN(C)CC3)C2=O)cc1	-35
CCN1CCN(CC(O)COc2ccc3c(c2)CCC3)CC1 (centres undefined)	-15
COc1ccc(NC2CC(=O)N(c3ccccc3C(F)(F)F)C2=O)cc1 (centres undefined)	8
Cn1ccnc1SCC(=O)c1ccc(O)cc1	-6
CCCNS(=O)(=O)c1ccc(NC(=O)c2ccccn2)cc1	-7
C[C@H](NC(=O)c1cnc(-c2ccccc2)[nH]1)c1ccccc1	-4&-4
CC(C)C(CO)Nc1nc(Nc2ccc(Cl)c(C(=O)O)c2)c2ncn(C(C)C)c2n1 (centres undefined)	-2
Cn1cc(SCC(=O)N2CCCC2)c2ccccc21	-11
C=CCn1c(SCC(=O)O)nnc1-c1cccs1	6
Cc1cc(Br)cnc1N=CN(C)C	-7
CCCSc1nc2ccccc2[nH]1	4
CC(C)Oc1ccc2c(=O)c3cc(C(=O)O)ccc3oc2c1	0&-21&-21
NC(=NC(=O)c1ccc(OCC(F)(F)F)nc1)c1ccc(C(F)(F)F)cc1	-4
CC(C)C(NC(=O)c1cc2ccccc2cc1O)C(=O)O (centres undefined)	-25&-20
Cc1cc(C(=O)Nc2ccc3c(c2)CC(=O)N3)c(C)o1	-20&-20
CC(C)(C)NC(=O)C1CCC2C3CCC4NC(=O)C=C[C@]4(C)C3CC[C@]12C (some centres undefined)	-85
COc1cccc2cc(C(=O)Nc3ccccc3)c(=O)oc12	-27
NS(=O)(=O)c1ccc2c(c1)OCCO2	-11
O=C(CN1C(=O)CCC1=O)Nc1ccccc1Oc1ccccc1	-19
COc1ncc(-c2ccc3nccc(-c4ccnnc4)c3c2)cc1NS(=O)(=O)c1ccc(F)cc1F	-73
Cc1ccccc1OCCn1cnc2ccccc21	0
CCOC(=O)c1c(C)[nH]c(C(=O)CSc2ccc(Cl)cc2)c1C	2
Cc1ccc(S(=O)(=O)c2nc(NN)sc2Cl)cc1	-9
C#Cc1cccc(Nc2ncnc3cc4c(cc23)OCCOCCOCCO4)c1	-12
Cc1ccccc1C(=O)ON1CCCc2ccccc21	-19
